Vif A3G = HIV-1 Vif–A3G interaction blockers – biochemical, TR-FRET, GST-Vif 1-94, biotin-A3G peptide, dose response retest, primary screen (AID 1117319); TR-FRET GST-Vif / biotin-A3G peptide binding; higher % means a stronger effect; test concentration not given here; strong numbers were not always called active; one-dose inhibition, %; IC50 in µM for titrated hits; hit rate 0.57% among 260,000;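 active means above the screen mean plus three standard deviations and confirmed in dose response; inconclusive means results disagree or hit not tested in dose response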;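 further: Vif residues 1-94 fused to GST binding biotinylated APOBEC3G peptide 110-148; 0% = full assay without inhibitor and 100% = GST in place of GST-Vif; retest series ran down from 100 µM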
Beta2AR agonist = agonists of human beta-2 adrenergic receptor inducing internalization. hit rate 0.43% among 340,000. P07550. response, % (concentration not given with the values). AID 504454. Am2.2-beta2AR cells, FAP receptor internalization, flow cytometry; reference of the scale not given here;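 active means response above a set limit, near 3 SD of response in nonfluorescent compounds, cut at about 42% in these data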;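 further: stock transfer was 100 nL into about 11 µL; a reference agonist was the positive control; negative values mostly stem from fluorescent compounds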
Target sequence (P07550 whole entry, looked up): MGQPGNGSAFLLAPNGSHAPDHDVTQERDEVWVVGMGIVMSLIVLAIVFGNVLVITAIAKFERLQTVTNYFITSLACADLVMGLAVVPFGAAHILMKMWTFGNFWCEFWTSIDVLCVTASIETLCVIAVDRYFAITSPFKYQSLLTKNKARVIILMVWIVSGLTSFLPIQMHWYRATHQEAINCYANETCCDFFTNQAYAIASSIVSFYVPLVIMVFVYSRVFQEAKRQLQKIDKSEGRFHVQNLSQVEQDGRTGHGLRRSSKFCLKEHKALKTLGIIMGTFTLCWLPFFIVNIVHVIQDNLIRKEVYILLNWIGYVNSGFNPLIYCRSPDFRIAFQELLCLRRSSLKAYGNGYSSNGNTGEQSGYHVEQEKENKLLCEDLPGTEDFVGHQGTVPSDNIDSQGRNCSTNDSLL
Bfl-1 A1 inh = inhibitors of the anti-apoptotic protein A1, read as caspase activation. MEF A1-2A-BIM cells, Caspase-Glo 3/7 luminescence, 3 h; percent of clofoctol response, vehicle zero. caspase activation, % (concentration not given with the values). hit rate 0.066% among 330,000;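 active means over half of replicate activation scores above 10%, or exactly half above 10 with the replicate mean above 10; inconclusive means replicate mean below 10 yet half the replicates above 10; inactive means over half of replicates below 10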;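 further: wells of about 30 µL received 50 nL stock; many hits fall short of the cut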
LANA-H2A inh = blocks KSHV LANA binding to histone H2A/H2B. Q9QR71. cell-free LANA-H2A/H2B peptide, fluorescence polarization. inhibition, % (test concentration not listed). hit rate 0.6% among 320,000. AID 2629; in the data active means inhibition mostly above about 10%, no sharp cut-off; inactive means mostly below about 6.7%;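 further: stock transfer was 7.5 nL into about 10 µL; 0% = median of vehicle wells and 100% = median of positive control wells; one replicate is shown; the record names a cut of 25% in any replicate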
UCH37 DUB inh = human UCH37 deubiquitinating enzyme inhibition | inhibition, % (concentration not given with the values) | AID 588478 | purified proteasome/UCH37, Ub-AMC cleavage fluorescence | Q9Y5K5 | hit rate 0.33% among 330,000;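 active means mean of two replicates above 20%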;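 further: 0% = compound-free wells with enzyme and 100% = wells lacking proteasome; stock transfer was 100 nL into about 20 µL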
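Reagent: Ub-AMC substrate; assay system: Proteasome-associated human UCH37 deubiquitinase; controls: no-proteasome and no-compound wells; read-out: % inhibition of Ub-AMC cleavage fluorescence; timing: 30 min preincubation with enzyme, 25 min cleavage at room temperature; signal: AMC fluorescence from Ub-AMC cleavage, excitation 355 nm, emission 460 nm; buffer or medium: Tris-HCl pH 7.4 plus ovalbumin, ATP-MgCl2, DTT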
HNF4A DNA FP = change in binding of human HNF4 alpha to DNA | P41235 | HNF4a-FITC DNA binding, fluorescence polarization, 1 h | activity change, % at 10 µM | hit rate 0.3% among 360,000 | AID 1224865; in the data active means activity change above about 30%, passing the limit was not always enough;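 further: controls were the assay level and a saturating level of protein; the project sought stronger binding though the title names inhibitors; some compounds called inactive have numbers as strong as hits; positive values seem to mean higher polarization but the record does not say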
Target sequence (P41235 whole entry, looked up): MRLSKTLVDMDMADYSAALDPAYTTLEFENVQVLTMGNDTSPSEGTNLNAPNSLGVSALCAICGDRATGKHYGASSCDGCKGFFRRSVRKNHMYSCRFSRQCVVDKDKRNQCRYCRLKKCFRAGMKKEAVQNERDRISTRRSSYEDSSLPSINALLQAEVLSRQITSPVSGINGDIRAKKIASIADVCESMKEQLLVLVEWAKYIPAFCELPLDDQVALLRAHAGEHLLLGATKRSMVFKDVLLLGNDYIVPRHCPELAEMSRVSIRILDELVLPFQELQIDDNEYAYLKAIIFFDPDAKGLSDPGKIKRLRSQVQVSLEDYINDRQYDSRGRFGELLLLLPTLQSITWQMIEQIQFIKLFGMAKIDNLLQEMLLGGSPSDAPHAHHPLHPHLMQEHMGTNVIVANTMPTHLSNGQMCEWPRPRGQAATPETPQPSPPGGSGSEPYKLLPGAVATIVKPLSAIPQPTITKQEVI
E coli growth = blocks Escherichia coli growth; OD600 absorbance (test concentration not listed); AID 1053175; OD600, 23 h; stronger effect = lower value; hit rate 0.21% among 330,000;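 active means OD600 absorbance below the run mean of sample wells minus 3.6 SD, in any replicate, cut at about 0.56 in these data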;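 further: stock transfer was 300 nL into about 60 µL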
* marks the source's active call; other numbers are inactive results; i = inactive; ? = inconclusive; . = no result given; & = joins results of further samples.

entry	SMILES	Vif A3G	Beta2AR agonist	Bfl-1 A1 inh	LANA-H2A inh	UCH37 DUB inh	HNF4A DNA FP	E coli growth
1	O=C(CCN1C(=O)c2ccccc2S1(=O)=O)Nc1ccc2c(c1)OCCO2	0%	10	0.4	4.8	0.8	2.4	0.62
2	COc1cccc(OCCOc2c(OC)cccc2OC)c1	4%	3	-2.0	14*	4.4	-1.5	0.67
3	O=C(Nc1cccc(Cl)c1)Nc1nc(-c2ccc(Cl)cc2)cs1	?	0	0.2	-8.3	0.1	-1.2	0.73
4	CC(NC(=O)CSc1ccccc1C(=O)O)C1CC2CCC1C2 (stereo not given)	-5%	-1	1.3	1.8	-0.5	-4.0	0.61
5	CCCn1nc(C(=O)Nc2ccc(-n3cnnn3)cc2)c2ccccc2c1=O	-5%	2	.	.	-40	2.2	0.7
6	COC(=O)c1cc(C)c(C)cc1NC1OC(CO)C(O)C1O (stereo not given)	3%	-7	.	.	.	-0.8	.
7	Oc1ccc(N=Nc2ccc(Br)cc2)c(O)c1	-6%	2	-7.9	-1.4	.	0.6	.
8	COc1ccccc1N(CC(O)Cn1nc(C)cc1C)S(=O)(=O)c1ccccc1 (stereo not given)	-2%	-2	0.2	-3.5	0.6	-2.0	0.68
9	COc1ccc(CCNC2CCc3ccccc3C2)cc1 (stereo not given)	7%	2	-1.7	4.8	0.4	0.5	0.64
10	COC(=O)[C@H](CC(C)C)NC(=O)NCCCc1ccccc1	-2%	8	-1.9	0.0	1.7	1.6	0.71
11	O=C(NC1CCCC1)C(c1ccncc1)N(Cc1ccccc1)C(=O)c1ccc(-c2ccccc2)[nH]1 (stereo not given)	0%	-8	-0.5	-3.0	0.1	-3.9	0.69
12	CCOC(=O)c1ccc2[nH]c(C)c(CCC(C)=O)c(=O)c2c1	?	1	0.9	-17	-183	1.5	0.66
13	O=C(NCc1ccc(F)cc1)C1(c2cccs2)CCOCC1	.	-4	-0.3	1.4	1.3	-4.3	0.71
14	CCCn1c(N)c(C(=O)CSc2nc(C)nc3sc(C)c(C)c23)c(=O)[nH]c1=O	-30%	2	-0.7	-4.2	2.1	0.4	0.72
15	Cc1nc(C(=O)NCCC(C)C)sc1C1(C)CC(c2cccc([N+](=O)[O-])c2)=NO1 (stereo not given)	.	-9	.	.	1.6	0.5	0.71
16	COCCNS(=O)(=O)c1ccc2c(c1)C(=O)c1cc(S(=O)(=O)NCCOC)ccc1-2	3%	11	-0.5	-4.8	2.5	-3.0	0.67
17	O=C(c1cccc(C(F)(F)F)c1)N(c1ccccn1)C1CCCCC1	-2%	6	1.1	2.5	2.6	-0.1	0.71
18	O=C(Oc1ccccc1)N1CCOCC1	.	-3	0.1	-2.1	3.9	3.1	0.67
19	NC(=O)c1cnccn1	?	-9	.	7.4	2.6	3.3	0.66
20	CCn1nc([N+](=O)[O-])c(C(C#N)c2nc3ccccc3n2C)c(Cl)c1=O (stereo not given)	.	-1	0.6	-3.1	5.1	-1.5	0.69
21	CC1CCCC(NC(=O)CCNC(=O)c2ccc(Cl)cc2)C1C (stereo not given)	8%	-7	1.1	-6.1	3.3	1.8	0.69
22	Cc1cccc(-n2c(Cc3ccccc3)nnc2SCc2ccc([N+](=O)[O-])cc2)c1	-3%	-7	0.0	-3.4	0.9	-1.3	0.69
23	Cc1ccc2nc(/C(C#N)=C\c3ccc(OC(=O)c4cccs4)cc3)[nH]c2c1	1%	6	-1.0	-2.0	-55	0.2	0.67
24	NS(=O)(=O)c1cccnc1Nc1ccc(Cl)c(Cl)c1	3%	3	-0.5	.	.	3.9	0.7
25	Cc1nnc(SCC(=O)N2CCCC(N3CCN(c4ccc(F)cc4)CC3)C2)o1 (stereo not given)	2%	-3	-0.5	-2.2	4.2	-1.4	0.75
26	COc1cccc(Nc2ccccc2C(=O)O)c1	.	-1	0.7	2.4	2.4	-2.2	0.69
27	Cc1cc(S(=O)(=O)N2CCN(c3ccccn3)CC2)c(C)cc1Cl	.	-3	1.0	-2.8	1.0	0.5	0.68
28	c1ccc2c(NCC3CCCO3)nc(-c3ccncc3)nc2c1 (stereo not given)	13%	-1	0.4	-2.2	1.9	0.0	0.68
29	COC(=O)Cc1c(C)c2ccc(O)c(CNCc3ccc(OC)c(OC)c3)c2oc1=O	-12%	3	0.6	6.7	i	-0.4	0.67
30	O=C(C1CCCN(S(=O)(=O)c2cccc3cccnc23)C1)N1CCN(c2ccc(F)cc2)CC1 (stereo not given)	7%&-15%	-10	0.1	25*	4.8	5.7	0.76
31	Cc1cc(C)cc(-n2nnnc2SCC(=O)Nc2nc(-c3ccc(Cl)cc3)cs2)c1	-9%	3	-0.6	-6.7	2.2	1.5	0.7
32	Cc1ccc(C)c(NC(=S)NCCCN2CCOCC2)c1	-1%	3	1.0	-0.7	4.9	1.3	0.71
33	CC1(C)Oc2ccc3ccc(=O)oc3c2/C(=C/N)C1=O	2%	-5	.	5.3	3.7	-0.4	0.61
34	CCOC(=O)C1CCCN(C(=O)c2ccc3c(c2)OCCO3)C1 (stereo not given)	2%	8	.	.	3.2	-0.1	0.68
35	O=C(Cc1ccc(F)cc1)Nc1nccs1	4%	-19	-0.7	-3.4	1.4	5.1	0.66
36	Cc1c(Cl)cccc1N(Cc1ccc(C(=O)O)cc1)S(=O)(=O)c1ccccc1	3%	4	0.7	2.0	7.6	2.7	0.71
37	COc1ccc(-c2noc(N3CCCC(C(=O)Nc4cc(F)ccc4F)C3)n2)cc1 (stereo not given)	.	3	.	-1.2	2.2	3.4	0.68
38	O=C(O)c1ccccc1C(=O)Nc1ccccc1NC(=O)c1ccccc1C(=O)O	.	-8	-1.4	-2.3	4.7	0.5	0.68
39	CSc1ccccc1OCc1cc(C(=O)NCCCc2ccccc2)no1	1%	-5	-0.4	-1.5	5.3	0.7	0.66
40	COC(=O)c1c(C)[nH]c(C(=O)OCC(=O)N(CC(C)C)c2c(N)n(Cc3ccccc3)c(=O)[nH]c2=O)c1C	-1%	15	-0.7	.	-7.3	5.5	0.61
41	CN1CCc2ccc(NC(=O)c3ccc(C(F)(F)F)cc3)cc2C1	.	-3	0.6	-2.0	2.9	-6.8	0.66
42	CC(Oc1ccc(F)cc1)C(=O)Nc1cc(S(=O)(=O)N2CCCCC2)ccc1N1CCN(C)CC1 (stereo not given)	.	4	.	.	4.2	2.3	0.65
43	O=S1(=O)CCC(NC(=S)SCCOc2ccccc2)C1 (stereo not given)	1%	15	1.7	2.0	0.3	3.9	0.49*
44	O=c1[nH]c(-[n+]2ccc3ccccc3c2)c(/C=N/N=C(\[O-])c2ccccc2)s1	.	-442	0.1	-0.2	.	-0.4	.
45	O=c1c2ccccc2sc2ccc(Cl)cc12	-408%	-13	-4.4	2.2	-13	-2.2	0.67
46	COCCNC(=O)[C@H]1C[C@@H]1[C@H](NP(=O)(c1ccccc1)c1ccccc1)c1ccccc1	-5%	-1	0.1	2.0	0.1	0.7	.
47	CC[C@H](C)[C@H](NC(N)=O)C(=O)Nc1ccc(NC(C)=O)cc1	6%	5	1.1	3.2	3.8	1.4	0.69
48	O=C1OC(OC2CCCCC2)(c2ccccc2)c2ccccc21 (stereo not given)	29%	12	-0.3	-3.1	5.1	-1.4	0.71
49	COc1cc(OC)c(N(C)C(=O)CCNC(=O)Cn2cnc3ccccc3c2=O)cc1Cl	6%	3	-0.1	0.0	0.1	2.5	0.63
50	O=C(Nc1cccs1)OCCN1CCN(Cc2ccccc2)CCC1=O	-7%	-2	0.8	-5.0	0.4	-3.0	0.7
51	CC1CN(c2nn3c(=O)c4ccccc4nc3c3ccccc23)CC(C)O1 (stereo not given)	-6%	5	-0.6	-5.0	-3.8	4.3	0.68
52	CS(=O)(=O)N1CCCC(C(=O)NC2CCCCCCC2)C1 (stereo not given)	19%	-4	-0.7	3.1	1.5	-3.7	0.67
53	Cc1cnc(CNC(=O)CC2C(=O)NCCN2Cc2cccc(F)c2F)cn1 (stereo not given)	-8%	-7	-0.1	-3.0	5.4	1.4	0.66
54	Cc1ccccc1NC(=O)COc1ccc2c(c1)OC(C)(C)CC2=O	.	12	0.5	-0.8	3.3	-5.2	0.67
55	COc1ccc(C(=O)NCCCc2ccccc2)cc1	.	-12	-1.7	0.3	1.9	1.3	0.57
56	C=CCNc1nc(C2(C)CC3(CC(C)(C)OC3=O)C(=O)O2)cs1 (stereo not given)	1%	-5	-1.8	1.6	2.9	4.7	0.72

Three of the compounds above, with each value named.
(53) Cc1cnc(CNC(=O)CC2C(=O)NCCN2Cc2cccc(F)c2F)cn1 (stereo not given)
  Vif A3G: -8%
  Beta2AR agonist: -7
  Bfl-1 A1 inh: -0.1
  LANA-H2A inh: -3.0
  UCH37 DUB inh: 5.4
  HNF4A DNA FP: 1.4
  E coli growth: 0.66

(54) Cc1ccccc1NC(=O)COc1ccc2c(c1)OC(C)(C)CC2=O
  Vif A3G: .
  Beta2AR agonist: 12
  Bfl-1 A1 inh: 0.5
  LANA-H2A inh: -0.8
  UCH37 DUB inh: 3.3
  HNF4A DNA FP: -5.2
  E coli growth: 0.67

(55) COc1ccc(C(=O)NCCCc2ccccc2)cc1
  Vif A3G: .
  Beta2AR agonist: -12
  Bfl-1 A1 inh: -1.7
  LANA-H2A inh: 0.3
  UCH37 DUB inh: 1.9
  HNF4A DNA FP: 1.3
  E coli growth: 0.57

(further entries)
entry	SMILES	Vif A3G	Beta2AR agonist	Bfl-1 A1 inh	LANA-H2A inh	UCH37 DUB inh	HNF4A DNA FP	E coli growth
57	Brc1ccc(CSc2nnc(-c3cccnc3)o2)cc1	.	-8	-0.3	-4.2	-0.2	-1.9	0.68
58	COC(=O)Cn1c(=NC(=O)c2ccc(OC)c(OC)c2)sc2cc(OC)ccc21	1%	2	0.2	1.1	-259	-3.5	0.71
59	CC(C)Cc1cc(C(=O)NCCCN2CCOCC2)no1	.	-10	0.3	-3.8	3.2	7.7	0.74
60	Cc1c(C(C)NC(=O)Nc2ccc(F)cc2F)cnn1C (stereo not given)	12%	17	-0.2	0.5	0.8	-5.1	0.7
61	Cc1ccc(C2=CC(=O)CC(C)(C)C2)cc1	.	-9	0.0	5.3	0.3	-2.4	0.59
62	COc1ccc(-c2csc3ncnc(Oc4cccc5ccc(C)nc45)c23)cc1	.	6	-0.2	2.5	6.9	0.8	0.66
63	O=C(NNC(=O)c1cc(F)c(F)cc1Cl)c1ccc(NS(=O)(=O)c2cccs2)cc1	28%	-5	-0.6	.	2.3	-4.7	0.65
64	Cc1ccc(-n2cc[nH]c2=S)cc1C	.	3	0.1	7.6	3.2	-1.9	0.7
65	COC(=O)[C@@H]1C[C@H]1[C@@H](NS(=O)(=O)c1ccccc1)c1ccccc1	2%	-1	0.7	0.3	5.1	0.8	.
66	CC(=O)c1ccc(NC(=O)C(C)N(C)CC(=O)Nc2ccc(N3CCOCC3)cc2)cc1 (stereo not given)	.	4	0.1	.	.	5.0	.
67	COc1ccc2[nH]c3c(=O)n(N)c(=O)[nH]c3c2c1	-5%	14	0.3	4.4	-204	-0.2	0.69
68	CCc1cccc(NC(=O)c2snc3c(=O)[nH]cnc23)c1	-4%	-1	0.1	10.0	0.9	-0.6	0.71
69	O=C(Nc1cc2c(ccc3ccccc32)oc1=O)C1CCCCC1	-4%	-1	-0.4	2.3	-271	1.0	0.69
70	Cc1c(C(=O)NC2=NCCS2)cccc1[N+](=O)[O-]	-2%	-7	0.0	-0.5	4.9	1.3	0.68
71	O=C(Nc1nnc(SCc2ccc(F)cc2)s1)c1ccco1	0%	-16	0.2	-4.1	0.9	-3.6	0.72
